KCNQ2 pot = enhances the rat KCNQ2 potassium channel; CHO-K1 KCNQ2, FluxOR thallium flux fluorescence; hits give high values; 0.54% of 310,000 active; B-score at 10 µM; O88943;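 active = fluorescence ratio B-score at least 3 SD of library B-scores, with initial fluorescence B-score within 3 SD, cut at about 5.3 in these data; same plate scores as AID 2156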;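 note: B-score of peak minus minimum over baseline fluorescence ratio after K+ and Tl+ stimulus; positive B-score means potentiation of KCNQ2 with more thallium influx and brighter signal; only the inactives scoring about 0 or higher are listed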
Target sequence (O88943 whole entry, looked up): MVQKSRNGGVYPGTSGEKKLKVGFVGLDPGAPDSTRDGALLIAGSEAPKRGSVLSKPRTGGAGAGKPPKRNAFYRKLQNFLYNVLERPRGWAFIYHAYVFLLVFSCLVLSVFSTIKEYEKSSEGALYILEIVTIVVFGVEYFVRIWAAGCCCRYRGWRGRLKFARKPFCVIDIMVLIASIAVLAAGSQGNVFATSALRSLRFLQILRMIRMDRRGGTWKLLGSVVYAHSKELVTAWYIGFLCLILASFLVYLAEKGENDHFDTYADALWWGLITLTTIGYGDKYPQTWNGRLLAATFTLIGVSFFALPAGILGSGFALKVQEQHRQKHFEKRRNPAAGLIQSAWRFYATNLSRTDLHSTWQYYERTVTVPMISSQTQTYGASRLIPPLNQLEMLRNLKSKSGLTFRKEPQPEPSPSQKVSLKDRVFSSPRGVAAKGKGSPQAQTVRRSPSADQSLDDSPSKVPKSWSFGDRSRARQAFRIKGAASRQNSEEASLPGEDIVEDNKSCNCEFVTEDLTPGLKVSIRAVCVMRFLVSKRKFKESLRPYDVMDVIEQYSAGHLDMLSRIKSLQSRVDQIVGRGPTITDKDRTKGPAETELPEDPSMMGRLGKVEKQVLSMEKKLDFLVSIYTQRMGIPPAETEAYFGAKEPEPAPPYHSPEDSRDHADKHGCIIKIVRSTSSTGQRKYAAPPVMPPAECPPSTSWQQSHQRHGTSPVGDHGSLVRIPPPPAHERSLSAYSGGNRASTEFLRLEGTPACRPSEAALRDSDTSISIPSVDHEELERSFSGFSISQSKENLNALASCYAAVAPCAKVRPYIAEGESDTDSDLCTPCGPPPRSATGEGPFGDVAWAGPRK
KCNQ2 pot baseline = recorded beside KCNQ2 pot, whose call it bears; B-score; compound at 10 µM; measured here: initial fluorescence intensity artifact check;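 brightness before thallium and not channel activity; 0 = typical well and far values either way flag optical interference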
* marks the source's active call; other numbers are inactive results. Only part of the results is shown. The share of hits here may be higher or lower than overall.

KCNQ2 pot	KCNQ2 pot baseline	Molecule
1.6	-0.86	CCN1CCN(CCOc2ccccc2OCc2ccccc2)CC1
1.5	-0.71	O=C(Cc1ccc(S(=O)(=O)N2CCCC2)s1)N1CCN(c2ccccc2)CC1
0.35	-2.5	O=C(OCc1ccc([N+](=O)[O-])cc1)c1ccccn1
0.35	-0.52	Cc1ccc(C)c(N2CCN(c3ccc([N+](=O)[O-])cn3)CC2)c1
0.66	0.83	CCOC(=O)Nc1nc(C)c(C(=O)N(C)C)s1
1.8	-0.22	Cc1cccc2nc(-c3ccco3)c(Nc3ccc4c(c3)OCO4)n12
0.78	0.02	CCCCCC(=O)N/N=C/c1cc(Br)c(O)c(OC)c1
0.58	-0.75	CCOC(=O)Cc1csc(NC(=O)COc2cc(C)cc(C)c2)n1
2.5	-0.67	CC(=O)c1ccc(N2CCN(C(=O)c3cc4c(C)nc5ccccc5c4o3)CC2)cc1
1.7	0.01	O=CN1CCN(CC(O)Cn2c3ccccc3c3ccccc32)CC1 (stereo not given)
0.31	-1.9	CSCCC(NC(=O)c1ccco1)C(=O)OCC(=O)Nc1ncc(Cl)c(C)c1Cl (stereo not given)
0.45	0.06	Fc1ccc(/C=C\c2nccc3c2[nH]c2ccccc23)cc1
1.4	0.25	COc1ccc(/C=N/Nc2cc(N3CCOCC3)nc(C)n2)c(OC)c1
0.22	-0.26	CC(C)=NOc1nc(N2CCOCC2)nc(N2CCOCC2)n1
2.3	-0.1	COc1ccc(Br)cc1C1CC(=O)N2CN(C)CSC2=C1C#N (stereo not given)
0.1	0.01	Cc1scc(C(=O)NNC(=S)NCc2ccccc2)c1C
0.24	-0.12	O=C(CN1CCOCC1)Nc1ccccc1F
2.8	-0.17	Cc1ccc(OCC(=O)NNC(=O)C(=O)NC(C)(C)C)cc1
2	-0.21	Cc1ccc2nc(SCC(=O)N3CCC(Cc4ccccc4)CC3)nc(=O)n2c1
0.01	0.07	CC(=O)N1CCOc2ccc(S(=O)(=O)NCC3CCC(C(=O)NCCC(C)C)CC3)cc21 (stereo not given)
0.03	1.8	CC(=O)C1=C(O)C(=O)N(c2cccc(C(=O)O)c2)C1c1ccc(F)cc1 (stereo not given)
1.6	-0.85	COc1ccc2c(c1OC)C[N+]1([O-])CCc3cc4c(cc3C1C2)OCO4 (stereo not given)
1.2	0.46	COc1ccccc1-c1noc(CSc2nc(N)cc(=O)[nH]2)n1
1.1	-0.02	CCN(C(=O)CSc1nc2ccc(OC)cc2[nH]1)c1c(N)n(Cc2ccccc2)c(=O)[nH]c1=O
0.35	-0.94	Cc1ccc(C(C)(C)C)c(OCCN2CCCC2)c1
0.87	-1.4	Cc1nc2sc(C(c3ccccc3)N3CCN(CCO)CC3)c(O)n2n1 (stereo not given)
0.6	-2.2	O=C1N(c2ccc(Cl)cc2)C(c2ccc(Cl)cc2)N2CCCN12 (stereo not given)
0.14	2.2	CC(C)Cc1nnc(NC(=O)CN2C(=O)c3ccccc3C2=O)s1
1.2	0.43	Cc1ccc(C(=O)N(Cc2nc3ccccc3c(=O)[nH]2)C2CCCC2)cc1
0.84	0.56	CCc1ccc(C(=O)NN(C(=O)c2ccc(CC)cc2)C(C)(C)C)cc1
3.3	0.45	CCN1CCN(Cc2ccc(NC(=O)c3ccc(C)c(NC(=O)c4ccno4)c3)cc2C(F)(F)F)CC1
0.62	-1.9	O=C(Nc1ccc(F)cc1)C1CCN(C(=O)NCc2ccccc2)CC1
0.14	-0.52	CN(CC(=O)NCc1ccccn1)S(=O)(=O)c1ccccc1
0.02	-0.31	C(=C\c1nnc(-c2cccs2)o1)/c1ccccc1
0.65	1.2	O=c1ccn(Cc2ccccc2Cl)cc1
1.5	-0.56	Cc1ccc(-c2ccccc2)n1-c1cccc(C(=O)O)c1
0.31	0.02	CC[C@H](C)C(C(=O)N1CCN(C(=O)OC(C)(C)C)CC1)n1cc(C(CO)NC(=O)OC(C)(C)C)nn1 (stereo not given in full)
0.01	-0.06	CC(C)NC(=O)c1ccc(Sc2ccccc2)c([N+](=O)[O-])c1
0.27	-0.32	COc1ccc(OC)c(C(c2nnnn2CC2CCCO2)N2CCN(C)CC2)c1 (stereo not given)
1.2	-0.33	COc1ccc(C(=O)N/C(=C\c2cn(S(=O)(=O)N(C)C)c3ccccc23)C(=O)N2CCN(C)CC2)cc1
0.96	-0.03	Cc1ccsc1/C=C1\Oc2cc(OCC(=O)c3ccccc3)ccc2C1=O
0.09	-1.3	CCc1nnc(NC(=O)CSc2nnc(CNC(=O)c3cc(OC)c(OC)c(OC)c3)o2)s1
12*	1.8*	CCCCNC(=S)Nc1ccc([N+](=O)[O-])cc1
0.45	0.69	Cc1cccn2c(CNC3CCCc4ccccc43)c(C(=O)N3CCCCC3)nc12 (stereo not given)
0.67	-0.24	Cc1cc(C)c(-c2c(O)c3c(n(C)c2=O)CC(C)(C)CC3=O)c(C)c1
0.98	0.67	O=c1c2[nH]c3ccccc3c2ncn1Cc1cccnc1
0.07	0.82	CCn1c(SCC(=O)NCc2ccc3c(c2)OCO3)nnc1-c1cccs1
0.05	0.33	COc1ccc(S(=O)(=O)N(CCc2ccccc2)CC(=O)NC(C)C)cc1
0.05	-0.33	CC(C)(C)C(=O)NC(=S)Nc1ccc(Cc2ccncc2)cc1
0.64	-0.15	CCC(C)c1ccc(NC(=S)NCCn2cc(Br)cn2)cc1 (stereo not given)
1.3	2.8	COC(=O)CNC(=O)C1CCCN1C(=O)CNC(=O)OCc1ccccc1 (stereo not given)
1.4	2.5	COc1ccc(NC(=O)CN2CCN(Cc3ccc4c(c3)OCO4)CC2)cc1OC
1.4	-0.26	CC(C(=O)NCc1ccccc1)N1C(=O)c2ccccc2C1=O (stereo not given)
0.13	0.75	CCN(CC)C(=O)CN(c1cc(Cl)ccc1OC)S(=O)(=O)c1ccc(C)c([N+](=O)[O-])c1
1	0.26	Cc1cccc(C)c1NC(=O)Cn1c(=O)n(CCCC(=O)NCc2ccco2)c(=O)c2sccc21
1.1	0.81	CCSC1=C(C#N)C(c2ccc(OC)c(OC)c2)CC(=O)N1 (stereo not given)
1.1	-2.8	CCOc1ccc(S(=O)(=O)N(CC)CC)cc1NC(=O)c1ccc(N2CCCC2=O)cc1
0.73	2.1	COC(=O)c1ccc(C2C(C(=O)c3cc4ccccc4o3)=C(O)C(=O)N2CCCN(C)C)cc1 (stereo not given)
0.14	-0.5	COc1cc(Br)cc2cc(C(=O)NCC3CCCO3)c(=O)oc12 (stereo not given)
1.6	0.25	Cn1c(Cc2ccccc2)nnc1SCC(=O)NC1CCCCC1

Of the compounds above, four contain bromine:
KCNQ2 pot	KCNQ2 pot baseline	Molecule
0.78	0.02	CCCCCC(=O)N/N=C/c1cc(Br)c(O)c(OC)c1
2.3	-0.1	COc1ccc(Br)cc1C1CC(=O)N2CN(C)CSC2=C1C#N (stereo not given)
0.64	-0.15	CCC(C)c1ccc(NC(=S)NCCn2cc(Br)cn2)cc1 (stereo not given)
0.14	-0.5	COc1cc(Br)cc2cc(C(=O)NCC3CCCO3)c(=O)oc12 (stereo not given)

(list continues)
KCNQ2 pot	KCNQ2 pot baseline	Molecule
0.73	-0.01	Cn1c(=O)c2c(ncn2CC(=O)OCC(=O)Nc2ccccc2Cl)n(C)c1=O
1.4	-0.13	Cc1ccc(-c2noc(CN(C)C(=O)c3ccoc3C)n2)cc1
0.29	-2.4	CCc1nnc(SCC(=O)NC2CC2)n1CC
0.22	-0.61	O=C(N=C1SC2CS(=O)(=O)CC2N1c1ccc(Cl)cc1Cl)C1CCCO1 (stereo not given)
0.36	-0.15	O=C(CSC1=NS(=O)(=O)c2ccccc2N1)c1ccccc1
0.26	0.27	COc1cccc(OC)c1C(=O)Nc1ccccc1N1CCCC1
1.2	-3.3	N#Cc1nc(-c2ccc(OCc3ccc(Cl)cc3)cc2)oc1N1CCC(C(N)=O)CC1
0.38	0.41	O=C(C[n+]1cc(-c2ccc(Cl)c(Cl)c2)n2c1CCC2)OCc1ccccc1
1.6	1.3	O=C1Nc2ccc(Br)cc2/C1=C/c1ccc(C(=O)O)cc1
0.66	-0.02	CCN1C(=O)c2c(C)nc3ccccc3c2C1=O
0.73	-0.47	CCOc1ccc(NC(=O)CN(C)S(=O)(=O)c2cccc3cccnc23)cc1
0.22	-0.32	COc1ccccc1NC(=O)COc1ccc(/C=N/NC(=O)CSCc2cc(C)cc(C)c2)cc1
0.45	1.7	CCn1c(Cc2ccccc2)nnc1SCC(=O)N1CCCC1=O
0.03	-1	Cc1sc2nc(CN3CCOCC3)nc(N3CCC(C(N)=O)CC3)c2c1C
0.87	0.36	CC(C)N(C(=O)CSc1nnnn1-c1ccc2c(c1)OCO2)C(C)C
0.86	1.4	Cn1nc(C(=O)N2CCN(c3ccc(F)cc3)CC2)c2c1-c1ccccc1S(=O)(=O)C2
0.01	-0.98	O=C1C2C3C=CC(C3)C2C(=O)N1c1nc2ccccc2s1 (stereo not given)
1	-1	O=C(Cc1cccs1)Nc1cccc([N+](=O)[O-])c1
0.04	0.03	COc1ccc([C@@H]2[C@@H]3C(=O)N(C(C)(C)C)C(=O)[C@@H]3[C@]3(CC(C)C)C(=O)N(c4cccc(F)c4)C(=O)N23)cc1
1.2	1.6	COc1cc(NC(=O)CN2C(=O)c3ccccc3S2(=O)=O)c(OC)cc1Cl

Next section, starting with the last two of the part before.
KCNQ2 pot	KCNQ2 pot baseline	Molecule
0.04	0.03	COc1ccc([C@@H]2[C@@H]3C(=O)N(C(C)(C)C)C(=O)[C@@H]3[C@]3(CC(C)C)C(=O)N(c4cccc(F)c4)C(=O)N23)cc1
1.2	1.6	COc1cc(NC(=O)CN2C(=O)c3ccccc3S2(=O)=O)c(OC)cc1Cl
0.33	-0.95	COc1ccccc1NC(=O)C1C2C=CC3(CN(Cc4cccnc4)C(=O)C13)O2 (stereo not given)
0.64	-0.41	Cc1ccccc1NC(=O)c1ccco1
1.5	-2.1	CC1CCCN(C(=O)C23CCC(C)(C(=O)C2)C3(C)C)C1 (stereo not given)
0.31	0.76	C/C=C/C=C\C(=O)Nc1cccc(C2=NOC3(C2)C[C@@H](C(N)=O)N(C(=O)c2cc([N+](=O)[O-])cc([N+](=O)[O-])c2C)C3)c1 (stereo not given in full)
0.51	0.06	CN(c1ccc(OCC(=O)N2CCOCC2)cc1)S(=O)(=O)c1ccc(Cl)cc1
1.1	-1.6	COc1cc(CCNc2ccc3nnc(-c4ccccc4)n3n2)cc(OC)c1OC
0.16	0	CC[N+]1(C)CCC(=C2c3ccccc3CC(=O)c3sccc32)CC1 (stereo not given)
0.02	0.33	Cc1nnc(SCC(=O)Nc2nsc(-c3ccc(Cl)cc3)n2)s1
0.24	0.61	CC(CCc1ccco1)NC(=O)CSc1cc(=O)n(C)c2ccccc12 (stereo not given)
0.05	0.79	CCC/C(C)=N/NC(=O)c1ccccc1O
0.18	-0.22	COc1ccc(CCNC(=O)Cc2c(Cl)cccc2Cl)cc1
0.08	1.4	COc1ccc(N2C(=O)CC(c3ccc(OC(C)C)cc3)C2=O)cc1 (stereo not given)
1.1	1.8	COc1ccccc1CNC(=O)C1CCC(CNS(=O)(=O)c2ccccc2)CC1 (stereo not given)
0.96	-0.16	Cc1cccc(-n2c(Cc3cc(=O)[nH]c(=O)[nH]3)nnc2SCC(=O)Nc2cccc(C(F)(F)F)c2)c1
0.92	-0.04	S=C(Nc1cccc(Cl)c1)NC1CC2CCCC(C1)N2C1CCCC1 (stereo not given)
0.6	-0.65	Brc1ccsc1/C=N/Nc1ccccc1
0.07	-0.13	COc1ccc(C(=O)O)cc1NCc1cccnc1
0.59	-0.13	CCOC(=O)c1c(NC(=O)CSc2nnc(C)c(=O)[nH]2)sc2c1CCCC2
0.21	-1.1	NS(=O)(=O)c1ccc(CCNc2ccc(C(F)(F)F)cn2)cc1
0.85	0.11	CCCn1c(=S)[nH]c2cc(C(=O)N(CCO)Cc3ccccc3)ccc2c1=O
1.9	1.2	CCc1ccc(OCC(=O)OC2CCS(=O)(=O)C2)cc1 (stereo not given)
0.82	-0.69	CN(C)CCO/N=C(\c1ccc(Br)cc1)c1cccnc1
1.6	-0.67	COc1ccccc1NC(=O)C(=O)N1CCCC1
1.6	2	Cc1ccc(C)c(OCc2cc(C(=O)N(C)Cc3nccn3C)no2)c1
1.5	-3.9	c1ccc2c(c1)oc1c(NCc3ccc4c(c3)OCO4)ncnc12
0.07	-0.83	COc1ccccc1NC(=O)C1CCCCC1
1.6	0.97	CCOC(=O)C1(Cc2cccc(F)c2)CCN(Cc2ccc(COC)o2)CC1
0.46	-0.3	CNC(C)C#Cc1ccc2c(=O)c3c(OC)cccc3oc2c1 (stereo not given)
2.1	0.2	CC(C)c1ccc(NC2CCCN(C(=O)c3cc(C(C)C)[nH]n3)C2)cc1 (stereo not given)
0.07	-0.2	COc1ccccc1NC(=O)c1ccc(-n2cccn2)nc1
1.1	-0.77	Cc1ccccc1C(=O)Nc1cccc(NC(=O)c2ccc(-c3ccc(Br)cc3)o2)c1
0.33	0.14	COc1cccc(/C=C2\N=C3CCCCCN3C2=O)c1
1.7	-1.4	CCCCN(CC(=O)NC1CCCC1)C(=O)C(=O)Nc1ccc2c(c1)OCCO2
0.24	0.73	CCCCOC(=O)Nc1ccc(N2CCCCC2)cc1
0.16	-0.46	O=C(O)CSc1nnc(-c2ccc3c(c2)OCO3)o1

Reformatted: results already given
Order of results – KCNQ2 pot	KCNQ2 pot baseline
- COc1ccccc1NC(=O)C(=O)N1CCCC1
  1.6	-0.67
- Cc1ccc(C)c(OCc2cc(C(=O)N(C)Cc3nccn3C)no2)c1
  1.6	2
- c1ccc2c(c1)oc1c(NCc3ccc4c(c3)OCO4)ncnc12
  1.5	-3.9
- COc1ccccc1NC(=O)C1CCCCC1
  0.07	-0.83

Compound activity (PubChem)
